Compound activity as filed in PubChem BioAssay.
Vaccinia Venus: qHTS for Stage-Specific Inhibitors of Vaccinia Orthopoxvirus: Venus Reporter Primary qHTS; Vaccinia virus Venus reporter expression, fluorescence; Potency, µM (series often up to 36.5 µM), without a hit: at the highest dose activity change, negative = inhibition, most hits filed as inhibitors; hit rate 0.46% among 330,000; active means well fitted inhibition curve with a large enough effect; inconclusive means small, poorly fitted or top-dose-only effect; inactive means no such curve, though single readings can be large or run the other way; tested in A549 cells; also: nearly all actives have a fitted effect of over 30% in size; inactives centre near -10
VACV mCherry inh: qHTS for Stage-Specific Inhibitors of Vaccinia Orthopoxvirus: mCherry Reporter Primary qHTS; hit rate 0.63% among 310,000; Potency, µM (top dose mostly 36.5 µM), for inactives: top-dose activity change, negative = inhibition, most hits filed as inhibitors; Vaccinia virus mCherry reporter infection, fluorescence; about a quarter of the inactives have no number; active = well fitted inhibition curve with a large enough effect; inconclusive = small, poorly fitted or top-dose-only effect; inactive = no such curve, though single readings can be large or run the other way; tested in A549 cells; also: nearly all actives have a fitted effect of over 35% in size; inactives centre near -10
Numbers without * were called inactive; i = inactive; u = inconclusive; x = no result given; & = joins results of further samples; [ ] = remark or other dose. % is scaled to controls: 0 for no effect and ±100 for the full control effect; potency is read from the fitted curve at half-maximal effect.

SMILES	Vaccinia Venus	VACV mCherry inh
CCOc1ccc(NC(=O)c2cnccn2)cc1	-16%	x
COC(=O)[C@H]1[C@H]2C[C@H]3c4[nH]c5ccccc5c4CCN3C[C@H]2CC[C@@H]1O	-11%	-24%
C[C@H](CO)N1C[C@H](C)[C@@H](CN(C)S(=O)(=O)c2ccccc2)Oc2c(NS(=O)(=O)c3ccccc3)cccc2C1=O	-22%	-1%
O=C1c2ccccc2C(=O)C1c1ccc(Br)cc1	-13%	-9%
C=CCNC(=O)CC(=O)N/N=C/c1cccc(Br)c1	-15%	-3%
CCN(CC)S(=O)(=O)c1ccc(NC2c3ccccc3C(=O)N2c2ccc(C)cn2)cc1 (configuration not stated)	-4%	-10%
COc1ccc(CN2CCC(N3CC(C)OC(C)C3)CC2)c(OC)c1 (configuration not stated)	-8%	10%
O=C(Nc1nc(-c2ccccc2)c(-c2ccccc2)s1)c1ccc(S(=O)(=O)N2CCCCC2)cc1	4%	-12%
COc1ccc(C)cc1-n1c(SCC(=O)NCC2CCCO2)nc2c([nH]c3ccccc32)c1=O (configuration not stated)	-17%	-1%
Cc1ccc(-c2nc3c(C)cc(Br)cn3c2Cc2cccc(F)c2)cc1	5%	31%[activator]

One compound at a time, as listed above. Order of screens: Vaccinia Venus | VACV mCherry inh
`COc1ccc(C)cc1-n1c(SCC(=O)NCC2CCCO2)nc2c([nH]c3ccccc32)c1=O` (configuration not stated) across the screens: -17% | -1%
`C[C@H](CO)N1C[C@H](C)[C@@H](CN(C)S(=O)(=O)c2ccccc2)Oc2c(NS(=O)(=O)c3ccccc3)cccc2C1=O` across the screens: -22% | -1%
`Cc1ccc(-c2nc3c(C)cc(Br)cn3c2Cc2cccc(F)c2)cc1` across the screens: 5% | 31%[activator]
`CCN(CC)S(=O)(=O)c1ccc(NC2c3ccccc3C(=O)N2c2ccc(C)cn2)cc1` (configuration not stated) across the screens: -4% | -10%
`O=C1c2ccccc2C(=O)C1c1ccc(Br)cc1` across the screens: -13% | -9%

Other records
SMILES	Vaccinia Venus	VACV mCherry inh
O=C(CC1SC(=Nc2ccc(OC(F)F)cc2)N(CCC2=CCCCC2)C1=O)Nc1ccccc1F (configuration not stated)	-21%	-19%
Cc1sc(NC(=O)C2C3CCC(O3)C2C(=O)O)c(C(=O)OC(C)C)c1-c1ccc(Cl)cc1 (configuration not stated)	-11%	-4%
Cc1ccccc1NC(=S)NNC(=O)c1ccco1	-5%	-23%
N#CC1=C(N)Oc2cc(O)c(Cl)cc2C1c1ccccc1F (configuration not stated)	-26%	-11%
CC(/C=C1\SC(=S)N(NC(=O)c2ccncc2)C1=O)=C\c1ccccc1	-11%[7.34 µM]	-12%[7.34 µM]
COc1ccccc1CNC(=O)CCc1nnc2ccc(NCCCN3CCCC3=O)nn12	-7%	-1%
O=C1CC(C(=O)Nc2ccccc2C(=O)O)C(c2ccccc2)O1 (configuration not stated)	-19%	x
c1ccc2c(c1)nc(-c1ccncc1)n2CCNc1nc(CN2CCCCC2)cs1	-2%	i
CCOC(=O)C1(CCCc2ccccc2)CCN(C(=O)c2n[nH]c(CC)c2C)CC1	u	-23%
Cn1c(=NC(=O)CCl)sc2ccccc21	-29%	u

Quoted from the listing:
In Vaccinia Venus, N#CC1=C(N)Oc2cc(O)c(Cl)cc2C1c1ccccc1F (configuration not stated) has the entry -26%
In VACV mCherry inh, Cc1ccccc1NC(=S)NNC(=O)c1ccco1 has the entry -23%
In Vaccinia Venus, O=C1CC(C(=O)Nc2ccccc2C(=O)O)C(c2ccccc2)O1 (configuration not stated) has the entry -19%

(cont.)
SMILES	Vaccinia Venus	VACV mCherry inh
CS(=O)(=O)N(CC(=O)NCCSc1ccccc1)c1cc(C(F)(F)F)ccc1Cl	-7%	-1%
Cc1ccc(NC(=O)Cc2ccccc2)cc1S(=O)(=O)N1CCOCC1	-10%	-21%
Cc1ccc2oc(=O)n(Cc3ccccc3)c2c1	-5%	-2%
O=C(NN=C1CCCCCC1)c1ccc2c(c1)OCO2	-22%	-27%
Cc1cccc(-c2c3c(=O)n(C)c(=O)n(C)c3c3nnc4ccccc4n23)c1	-6%	-21%
CCOC(=O)Cc1nnc(NC(=O)CSc2nnc3c(n2)[nH]c2ccccc23)s1	13%	9%
CCc1nnc(SCC(=O)Nc2ccc(N3CCOCC3)cc2)o1	-2%	x
CC(=O)Nc1cccc(C(=O)N/N=C/c2ccc(C)o2)c1	-14%	-26%
C/C(=N/NC(=O)c1ccc(C)s1)c1cccc(NC(=O)COc2ccc(Cl)cc2Cl)c1	3%	x
COCOc1ccc(/C=C/C(=O)c2c(O)cc(OCOC)cc2OCOC)cc1	-15%	-11%
CC(C)N1C[C@@]23C=C[C@@H](O2)C(C(=O)OCc2ccccc2)[C@H]3C1=O (some centres not stated)	-4%	x
CCOc1ccc(NC(=S)NC(=O)c2c(Cl)c(C)nn2C)c([N+](=O)[O-])c1	-11%	i
CC(NC(=O)c1ccc2c(c1)N(Cc1ccc(Cl)cc1)C(=O)c1ccccc1S2=O)c1ccccc1 (configuration not stated)	-15%	-24%
Cc1ccc(OCC(=O)NCC(=O)n2nc(C)cc2C)cc1	2%	i
Cc1occc1C(=O)N1CCN(c2ncccn2)CC1	-3%	x
Cc1cccc(N(CC(=O)NCC2CCCO2)C(=O)CCC(=O)Nc2cc(C)on2)c1 (configuration not stated)	6%	5%
C[C@]12c3[nH]c4cc(-c5ccco5)ccc4c3CCN1C(=O)[C@@H](CC(=O)NCc1ccco1)C[C@@H]2C(=O)N1CCOCC1	-13%	u
CCOc1ccc(N(CC(=O)NCc2ccc(F)cc2)C(=O)CCC(=O)Nc2nccs2)cc1	2%	-7%
Cc1ccc(NC(=S)NC(=O)c2ccc(-c3ccccc3)cc2)c(C)c1	-13%	x
CN(C(=O)CSc1nc2ccccc2c(=O)n1-c1ccccc1Cl)C1CCS(=O)(=O)C1 (configuration not stated)	-5%	i
CCCCN(CC)C(=O)Cn1cnc2ccc(S(=O)(=O)N3CCC(C)CC3)cc2c1=O	-20%	-19%
Cc1ccccc1NC(=O)CSCc1nc(N)nc(Nc2ccccc2C)n1	-12%	i
COc1ccc(S(=O)(=O)Nc2c(C)n(C)n(-c3ccccc3)c2=O)cc1	-13%	-5%
O=C(Cc1ccc(Cl)c(Cl)c1)Nc1cccc(S(=O)(=O)N2CCOCC2)c1	-3%	-30%
O=C(CN1CCCC1)Nc1ccccc1Sc1ccc(Cl)cc1	-12%	-15%
COc1ccc(/C=N/N=C2/C(=O)Nc3ccccc32)cc1O	-13%	-19%
O=C(Nc1nnc2n1CCS2)c1ccc(F)cc1F	-7%[7.34 µM]	-5%[7.34 µM]
COc1ccc(-c2nnc(SCC(=O)Nc3cccc(F)c3)s2)cc1	-8%	3%
Cc1cc(Br)cc(Cl)c1OC(=O)c1cnccn1	-9%	0%
CCN(CC)C(=O)c1ccccc1NS(C)(=O)=O	-3%	i
COc1ccc(C2CC(=O)C(C=NCCN3CCOCC3)=C(O)C2)cc1 (configuration not stated)	-11%	x
CCC(CC)C(=O)c1c[nH]c(C(=O)NCc2cccs2)c1	-7%	i
O=C1CCc2cc(S(=O)(=O)N3CCN(c4ccccc4F)CC3)ccc2N1	-17%	-14%
O=C(CCN1CCCCC1)Nc1ccc(F)c(F)c1	-10%	i
O=C1c2oc3ccc(Cl)cc3c(=O)c2C(c2ccco2)N1CCN1CCOCC1 (configuration not stated)	5%	i
C=CCn1c(CCCNC(=O)CCC)nc2ccccc21	0%	0%
CCOC(=O)COc1ccc(C)cc1C(=O)c1ccn2nc(-c3ccc(Cl)cc3)cc2n1	u	u
O=C(Nc1cccc(Cl)c1)c1cc(-c2ccccc2)on1	-8%	0%
CCOC(=O)N/N=C1\CCc2ccccc21	-4%	i
Cc1nc(SC(C(N)=O)c2ccccc2)c(C#N)c(C)c1C (configuration not stated)	-14%	-8%

In the list so far, 2 have a cyano group:
SMILES	Vaccinia Venus	VACV mCherry inh
N#CC1=C(N)Oc2cc(O)c(Cl)cc2C1c1ccccc1F (configuration not stated)	-26%	-11%
Cc1nc(SC(C(N)=O)c2ccccc2)c(C#N)c(C)c1C (configuration not stated)	-14%	-8%

Additional compounds.
SMILES	Vaccinia Venus	VACV mCherry inh
N#CCC(=O)N/N=C/c1c(-c2ccccc2)n(-c2ccccc2)c2ccccc12	-1%	i
CC(=O)Sc1nc(-c2ccccc2)[nH]c1S(=O)(=O)c1ccc(C)cc1	3%	1%
CSCCC(NC(N)=O)C(=O)N(C)CC(=O)Nc1ccc(C)cc1 (configuration not stated)	-18%	x
Cc1ccc(Cl)cc1-n1ncc2c(N3CCCCCC3)ncnc21	-20%	u
COc1ccc2cc(-c3ccsc3)ncc2c1	-12%	-4%
CCOc1ccc(N2C(=O)CC(SCC(=O)O)C2=O)cc1 (configuration not stated)	-3%	-9%
Cc1ccccc1OCCn1cnc2cc([N+](=O)[O-])ccc2c1=O	-8%	u
O=C(c1ccc(NC(=O)C2(c3ccccc3)CCOCC2)cc1)N1CCOCC1	-9%	-7%
COc1cccc(OCC(=O)Nc2c3c(nn2-c2ccccc2)CS(=O)(=O)C3)c1	-13%	-23%
Cc1cccc(C(=O)Nc2nnc(S(=O)(=O)N(C)Cc3ccc(Cl)cc3)s2)c1	-13%	-7%
CCN(CC(=O)Nc1ccc(N2CCOCC2)cc1)Cc1nc2ccccc2c(=O)[nH]1	-5%	x
Cc1ccc(-c2nn(C(C)(C)C)c3ncnc(NS(=O)(=O)c4ccc([N+](=O)[O-])cc4)c23)cc1	-13%	-18%
NC(=O)c1ccc(N=Cc2ccc([N+](=O)[O-])s2)cc1	9%	-8%
Cc1ccc(S(=O)(=O)N2[C@@H](c3ccc(Br)cc3)C(C(=O)O)=CC[C@H]2c2cccc(C)c2)cc1	-7%	i
N=c1c(S(=O)(=O)c2ccccc2)cc2c(=O)n3ccccc3nc2n1CCCN1CCOCC1	-6%	0%
CCc1cccc(NC(=O)Cn2cc3c(n2)CCCC3)c1	-4%	-16%
CC(=O)Nc1ccc(NC(=O)CCn2c(=O)oc3ccccc32)cc1	-8%	-10%
O=C1CSC(=O)N1CCOCCN1C(=O)CSC1=O	-14%	-24%
O=C(Nc1ccc2c(c1)OCCO2)c1ccccc1F	-10%	-18%
Nc1nc(N2CCCCC2)c2ncn(C3OC(CO)C(O)C3O)c2n1 (configuration not stated)	-2%	-3%
COC(=O)COc1ccc(/C=C2/NC(=O)N(CC(=O)OC)C2=O)cc1	-1%	i
Cc1ccc(CN2CC(C(=O)NNC(=O)c3ccc(F)cc3)CC2=O)cc1 (configuration not stated)	1%	-10%
COc1ccc(-c2noc(-c3ccc(N4CCCC4)c([N+](=O)[O-])c3)n2)cc1	-2%	2%
CC(C)CN1CCC(=O)N([C@H](CN=[N+]=[N-])Cc2ccccc2)CC1	-8%&-14%	-4%
Cc1nc2c(c(C)nn2-c2ccccc2)c(C)c1CCC(=O)NCCc1ccccc1	-16%	-12%
CCN(CC(=O)NCc1cccs1)C(=O)c1cccc(S(=O)(=O)Nc2ccc(C)cc2)c1	-15%	-21%
Cc1ccc(-n2c(=O)c3c4c(sc3n(CC(=O)c3ccc(Cl)cc3)c2=O)CCC4)cc1C	-3%	-8%
COC(=O)C(CC(=O)CNC(=O)c1ccccc1)NC(=O)c1ccccc1 (configuration not stated)	1%	i
CN(C)CC(=O)N[C@@H]1C=C[C@@H](CC(=O)NCCN2CCCCC2)O[C@@H]1CO	-10%	-7%
CCOc1ccc(OCCOCCn2ccnc2)cc1	-2%	-10%
COc1cccc(NC(=O)C(Cc2ccccc2)n2cccc2)c1 (configuration not stated)	-9%	-10%
O=C(C[n+]1cc(Br)cc(Br)c1)c1ccc2ccccc2c1	-6%	27%
Cc1ccc(N2CCN(C(=O)Cc3c(C(=O)O)c(C)cn3C)CC2)c(C)c1	-6%	-4%
O=C(NCCc1c[nH]c2ccccc12)C1CCC(=O)N(CCc2cccc(F)c2)C1 (configuration not stated)	-22%	-23%
O=C(/C=C/c1cn(-c2ccccc2)nc1-c1cccs1)NCCN1CCOCC1	-13%[7.34 µM]	0%[7.34 µM]
O=C(Nc1ccc2c(c1)OCCO2)C(C1CC1)N1CCN(C/C=C/c2ccccc2)CC1 (configuration not stated)	-10%	i
CC1(C)C2CCC1(C)C(NC(=O)CCN1CCCCC1)C2 (configuration not stated)	-4%	-18%
CC(N)c1csc(Nc2nccc(C(F)(F)F)n2)n1 (configuration not stated)	-4%	6%
Cc1ccc(NC(=O)c2ncn(CC(=O)N[C@H](CO)Cc3c[nH]c4ccccc34)n2)cc1C	0%	-14%
CCO[C@@H]1c2c(ccc3ccc(=O)oc23)OC(C)(C)[C@H]1O	-9%	i
c1ccc2c(c1)nc1n2CC2CON(C3CCCCC3)C12 (configuration not stated)	-15%	u
N=C1SC(c2ccccc2)C(=O)N1c1ncc(Cc2ccccc2Cl)s1 (configuration not stated)	-8%	-11%
COc1ccccc1S(=O)(=O)Nc1cccc(-c2nnc3n2CCCCC3)c1	-15%	x
Cc1ccccc1-c1nc2scc(CCNC(=O)c3ccco3)n2n1	20%	14%
Cc1cnc(C(=O)OCC(=O)c2ccc(Br)s2)cn1	6%	-24%
CCOCC(=O)Nc1cccc(NC(C)=O)c1	-14%	x
COc1ccc(CC(=O)N2CC(=O)Nc3ccc(Br)cc3C2c2ccc(F)cc2)cc1 (configuration not stated)	-9%	-9%
Cc1ccc(C)c(N2CCN(C(=O)c3cc(C)nc4c3c(C)nn4-c3cccc(F)c3)CC2)c1	-15%	-18%
CCN(CC)S(=O)(=O)c1ccc(-c2nnc(SCC(=O)c3ccc(OC)cc3)o2)cc1	-2%	-5%
